UCH37 DUB inh = inhibitors of human deubiquitinating enzyme UCH37; Q9Y5K5; inhibition, % (concentration not given with the values); AID 588478; purified proteasome/UCH37, Ub-AMC cleavage fluorescence; 0.33% of 330,000 active;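 active = mean of two replicates above 20%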;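 also: 0% = compound-free wells with enzyme and 100% = wells lacking proteasome; stock transfer was 100 nL into about 20 µL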
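System: Proteasome-associated human UCH37 deubiquitinase; Input: 0.15 nM proteasome in added enzyme buffer; Also added: Ub-AMC substrate from 1 µM stock; Incubation: 30 min compound-proteasome preincubation then 25 min substrate reaction, room temperature; Detection: fluorescence, ex 355 nm, em 460 nm; Read-out: % inhibition of Ub-AMC cleavage fluorescence; Benchmarks: no-proteasome and no-compound wells.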
LANA-H2B inh = blocks KSHV LANA binding to histone H2A/H2B; Q9QR71; cell-free LANA-H2A/H2B peptide, fluorescence polarization; inhibition, % (test concentration not listed); 0.6% of 320,000 active; AID 2629; in the data active = inhibition mostly above about 10%, no sharp cut-off; inactive = mostly below about 6.7%;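 also: stock transfer was 7.5 nL into about 10 µL; 0% = median of vehicle wells and 100% = median of positive control wells; one replicate is shown; the record names a cut of 25% in any replicate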
Target sequence (Q9QR71 whole entry, looked up): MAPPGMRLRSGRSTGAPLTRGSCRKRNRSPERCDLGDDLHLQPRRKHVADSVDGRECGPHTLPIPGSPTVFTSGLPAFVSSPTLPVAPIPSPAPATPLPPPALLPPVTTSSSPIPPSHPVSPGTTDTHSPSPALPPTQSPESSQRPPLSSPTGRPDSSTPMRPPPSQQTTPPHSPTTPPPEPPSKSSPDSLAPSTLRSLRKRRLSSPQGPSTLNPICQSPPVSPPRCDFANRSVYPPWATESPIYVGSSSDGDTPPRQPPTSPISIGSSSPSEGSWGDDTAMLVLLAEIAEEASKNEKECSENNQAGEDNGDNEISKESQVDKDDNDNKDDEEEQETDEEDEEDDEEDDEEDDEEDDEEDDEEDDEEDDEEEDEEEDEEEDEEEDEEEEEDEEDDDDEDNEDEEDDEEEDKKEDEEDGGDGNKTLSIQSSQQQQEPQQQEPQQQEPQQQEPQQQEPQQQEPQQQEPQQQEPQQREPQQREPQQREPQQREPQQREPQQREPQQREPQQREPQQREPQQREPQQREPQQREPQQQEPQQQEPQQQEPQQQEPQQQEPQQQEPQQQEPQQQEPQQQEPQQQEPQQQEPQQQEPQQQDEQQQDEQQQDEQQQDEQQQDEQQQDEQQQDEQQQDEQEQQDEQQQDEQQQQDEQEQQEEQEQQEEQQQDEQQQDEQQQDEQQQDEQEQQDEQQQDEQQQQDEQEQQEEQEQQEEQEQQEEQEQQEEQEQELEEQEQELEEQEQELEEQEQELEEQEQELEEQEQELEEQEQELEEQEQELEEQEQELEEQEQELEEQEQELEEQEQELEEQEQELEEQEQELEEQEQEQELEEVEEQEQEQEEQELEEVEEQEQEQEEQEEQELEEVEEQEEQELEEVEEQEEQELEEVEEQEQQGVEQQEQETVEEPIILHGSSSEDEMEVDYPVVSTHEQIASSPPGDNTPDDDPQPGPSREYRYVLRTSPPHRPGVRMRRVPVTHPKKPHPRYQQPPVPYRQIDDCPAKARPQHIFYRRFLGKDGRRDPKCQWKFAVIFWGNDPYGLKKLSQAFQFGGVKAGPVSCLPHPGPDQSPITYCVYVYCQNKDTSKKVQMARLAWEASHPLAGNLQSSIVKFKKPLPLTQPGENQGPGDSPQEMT
RanGTP-Impb inh = disruptors of Ran-importin-beta complex formation – biochemical, FRET, CFP-Ran, YFP-importin-beta, homogeneous, primary screen | inhibition, % (concentration not given with the values) | 1.1% of 300,000 active | cell-free CFP-Ran/YFP-importin-beta FRET ratio;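 active = most replicates above 15%; inconclusive = exactly half above 15%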;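 also: 0% = DMSO wells and 100% = Ran loaded with GDP instead of GTP; wells of about 40 µL received 100 nL stock; the first replicate is given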
T cruzi inh = T. cruzi replication inhibition. T. cruzi beta-gal in NIH3T3, luminescence, 90 h. inhibition, % (no concentration beside the values). 1.4% of 300,000 active;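 active = mean inhibition across valid replicates above about 55%, limit read from the data; inconclusive = mean below that limit but half or more replicates reach it; inactive = mean below it, under half of replicates reach it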;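 also: signal also drops with host cell toxicity which is not excluded here; 0% = plate median of DMSO wells and 100% = zero luminescence signal; higher percent means less beta-gal luminescence so fewer parasites; stock transfer was 50 nL into about 50 µL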
Bfl-1 A1 inh = inhibitors of the anti-apoptotic protein A1, read as caspase activation | MEF A1-2A-BIM cells, Caspase-Glo 3/7 luminescence, 3 h; percent of clofoctol response, vehicle zero | caspase activation, % (concentration not given with the values) | 0.066% of 330,000 active | AID 2462;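 active = over half of replicate activation scores above 10%, or exactly half above 10 with the replicate mean above 10; inconclusive = replicate mean below 10 yet half the replicates above 10; inactive = over half of replicates below 10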;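 also: wells of about 30 µL received 50 nL stock; many hits fall short of the cut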
Calb FLC = affects C. albicans growth with fluconazole. C. albicans CaCi-2 (fluconazole-resistant clinical isolate) + fluconazole, Alamar Blue growth, 48 h. growth inhibition, % (concentration not given with the values). 0.57% of 300,000 active;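 active = most replicates above 75%; inconclusive = exactly half above 75%; inactive = most below 75%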;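 also: all wells also contain fluconazole at 8 µg/ml as a sub-toxic cotreatment; 0% = median of DMSO wells and 100% = median of geldanamycin control wells; wells of about 8 µL received 7.5 nL stock; the first replicate is given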
B2AR ag = activates human beta-2 adrenergic receptor causing internalization. P07550. Am2.2-beta2AR cells, FAP receptor internalization, flow cytometry; reference of the scale not given here. response, % (concentration not given with the values). 0.43% of 340,000 active;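 active = response above a set limit, near 3 SD of response in nonfluorescent compounds, cut at about 42% in these data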;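 also: stock transfer was 100 nL into about 11 µL; a reference agonist was the positive control; negative values mostly stem from fluorescent compounds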
Beta apoptosis = beta cell apoptosis inhibition; 0.8% of 300,000 active; INS-1E cytokine-induced death, ATP luminescence, 48 h; percent of positive-control rescue, neutral wells zero; protection from apoptosis, % (test concentration not listed);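 active = all replicates at 75% or more, or half of them and the mean; inconclusive = half reach 75% but not the mean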;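 also: 0% = cytokine-treated negative control wells and 100% = positive control rescue; higher means more ATP so stronger rescue from cytokine killing; wells of about 40 µL received 100 nL stock; the first replicate is given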
Starred values were filed as active, the others as inactive; ? = inconclusive; nt = not tested or not shown.

SMILES	UCH37 DUB inh	LANA-H2B inh	RanGTP-Impb inh	T cruzi inh	Bfl-1 A1 inh	Calb FLC	B2AR ag	Beta apoptosis
O=C(NC(=S)Nc1ccc(N2CCOCC2)c(Cl)c1)c1cccs1	2.1	1.0	0.3	8	1.5	-4	-5	0
CCn1c(CSCc2ccc(F)cc2)nnc1SCC(=O)NCc1ccccc1	nt	14	0.0	-2	-0.3	-3	-5	3
COc1ccc(C(=O)NCc2nnc(SCC(=O)N3CCc4ccccc43)n2CCc2ccccc2)cc1	3.0	3.7	-1.8	26	0.2	?	-13	-15
C=CCNC(=O)CCCOc1cccc(C)c1	-1.1	-1.0	?	4	0.4	1	-4	nt
Cc1ccccc1-c1nc2ccc(Cl)cc2c(=O)n1O	-1.0	-5.1	3.4	-6	0.2	-12	-8	-5
C=CCOc1ccccc1CNCc1ccc(F)cc1	2.6	4.1	?	3	0.1	-9	0	-1
Cc1nc(NCc2cccnc2)c2c3c(sc2n1)CCCC3	-2.3	0.0	-1.8	0	-0.3	32	-8	nt
Cc1cccc(C(CC(=O)O)NC(=O)C(F)(F)F)c1 (stereo not given)	2.8	0.6	-1.0	-15	0.2	-7	-2	-2
N#CCn1c(CN2CCCC2)nc2ccccc2c1=O	3.7	-0.5	2.8	-2	0.0	-3	-2	-9
CC(C)(C)OC(=O)NCCCC[C@H](NC(=O)c1nc[nH]c1C(=O)N1CCN(c2ccccc2)CC1)C(=O)OC(C)(C)C	-1.8	0.7	-10	11	-0.7	-3	-4	5
CC(C)Sc1ncnc2c1oc1ccccc12	0.7	0.6	-1.1	-1	0.7	12	-18	1
O=C(/C=C/c1cccc([N+](=O)[O-])c1)NCCSCc1ccccc1Cl	3.6	-3.1	?	3	1.1	10	5	6
CC1CN(C2CCN(C(=O)c3ccccc3Cl)CC2)CC(C)O1 (stereo not given)	3.2	0.9	6.0	2	0.6	0	-1	-5
CC(C)CCNc1nc(N)c([N+](=O)[O-])c(NCC2CCCO2)n1 (stereo not given)	6.9	6.9	?	26	-0.7	?	-3	0
CN(C)c1ccc(C(C#N)c2ccc(Cl)cc2)nn1 (stereo not given)	4.8	3.2	?	-4	0.3	1	-1	-4
COc1ccccc1N1CCN(C(c2cccs2)C(C)NC(=O)c2ccco2)CC1 (stereo not given)	0.7	-0.7	-2.8	-12	-0.1	-1	0	-4
COC(=O)c1ccc(CNC(=O)c2coc3ccccc3c2=O)cc1	-0.8	2.2	-7.1	-8	-0.8	-3	-8	-4
C[C@H](NC(=O)N1CCn2c1nc1ccccc12)C(=O)NCc1ccc2c(c1)OCO2	-1.0	3.9	9.7	4	-1.1	-2	-11	nt
CCN(CC)c1ccc(C=C2C(=O)OC(C)(C(C)(C)C)OC2=O)cc1 (stereo not given)	3.8	2.3	6.1	0	0.0	-12	7	-5
O=C1N=C(N2CCCC2C(=O)O)S/C1=C\c1ccco1 (stereo not given)	43*	-1.1	3.1	-27	1.4	-3	5	-11

Next section, overlapping the part above by two compounds.
SMILES	UCH37 DUB inh	LANA-H2B inh	RanGTP-Impb inh	T cruzi inh	Bfl-1 A1 inh	Calb FLC	B2AR ag	Beta apoptosis
CCN(CC)c1ccc(C=C2C(=O)OC(C)(C(C)(C)C)OC2=O)cc1 (stereo not given)	3.8	2.3	6.1	0	0.0	-12	7	-5
O=C1N=C(N2CCCC2C(=O)O)S/C1=C\c1ccco1 (stereo not given)	43*	-1.1	3.1	-27	1.4	-3	5	-11
COCCCNC(=O)CSc1nc2ccccc2c(=O)n1CCC(=O)NCCc1ccc(OC)c(OC)c1	2.2	3.3	-0.1	6	-0.7	10	-3	-4
COc1cccc2cc(C(=O)Nc3ccccc3Cl)/c(=N/NS(=O)(=O)c3ccccc3)oc12	nt	-2.3	0.8	-7	-0.2	-4	-6	2
NC(=O)C1(NC(=O)[C@@H]2CC3(CC(c4cccc(NC(=O)[C@@H]5CCC(=O)N5)c4)=NO3)CN2C(=O)Cc2ccc(C(F)(F)F)cc2)CC1 (stereo not given in full)	1.4	1.5	-0.8	9	0.0	12	-2	-3
COc1ccc(/C=C(/NC(=O)c2ccccc2)C(=O)N2CCCC2)cc1	4.5	6.8	-3.4	4	-1.2	1	-1	-7
CCCC(C)NC(=O)CN1C(=O)NC2(CCc3ccccc32)C1=O (stereo not given)	1.4	-2.4	-2.3	-8	0.4	-2	17	4
COc1ccc(Nc2nc3ccccc3s2)cc1	3.3	1.0	6.3	18	-3.6	-7	-4	-5
O=C1c2ccccc2C(=O)N1C1CCCCC1	6.0	-0.7	3.8	-23	0.9	-6	4	-3
O=c1c2ccccc2oc2cc(-c3ccc4[nH]ccc4c3)ccc12	-19	-2.4	-1.0	-5	-1.6	-15	-9	35
O=C(c1ccc2ccccc2c1)N1CCN(c2ccccc2)CC1	3.6	-2.6	nt	-6	?	1	17	-7
Cc1ccc(OCc2cc(C(=O)NCC(C)(C)N3CCOCC3)no2)cc1C	4.5	-8.1	3.0	9	-0.7	21	17	0
CC(C)CN(C(=O)COC(=O)c1cc2ccccc2oc1=O)C1CCS(=O)(=O)C1 (stereo not given)	-35	nt	-1.9	-4	nt	-4	nt	nt
COc1ccc(/C=C/C(=O)NCC(=O)N/N=C/c2cccnc2)cc1	nt	3.7	-1.8	4	0.8	8	-5	-2
O=C(O)c1cc(S(=O)(=O)N2CCCC2)ccc1Br	4.5	2.0	2.4	-29	0.5	0	-3	-6
Cc1ccc2nc(SCC(=O)Nc3cccc(F)c3)nc(=O)n2c1	nt	nt	0.1	0	-0.4	-6	-6	0
CC(C)CC(C(=O)O)N(Cc1ccccc1)Cc1ccccc1 (stereo not given)	2.7	-0.7	0.3	-5	-0.1	-10	4	-2
Cn1c(SCCN2CCCC2)nnc1C1CCN(S(=O)(=O)c2ccc(F)cc2)CC1	3.5	-3.4	-2.4	15	0.2	-15	-10	0
C/C(N)=C(/C#N)C(=O)COC(=O)Cc1coc2cc(C)ccc12	0.3	-1.4	3.9	-7	0.1	11	3	-2
COc1ccc(C(OC(=O)c2cccs2)C(=O)NCC2CCCO2)cc1 (stereo not given)	3.4	-3.4	7.3	4	0.8	-6	8	-1
COc1ccc(-c2cc(C(F)(F)F)c3c(=O)n(-c4ccccc4)[nH]c3n2)cc1	8.6	-0.9	-0.5	-19	0.4	21	3	19
CC(=O)c1ccc(OCc2cc(C(=O)N3CCC(Oc4ccccc4C)CC3)no2)cc1	3.9	-3.2	0.3	8	0.1	-9	2	-5
O=C(CN(C(=O)CNS(=O)(=O)c1ccccc1)C1CCCC1)NCc1ccco1	5.0	-12	3.8	-12	-0.5	0	-3	0
C=C(C)CN=c1scc(C)n1/N=C/c1ccco1	nt	2.0	-6.8	0	-0.3	0	3	-7
CC(C1CCN(Cc2nc(C3CC3)no2)CC1)N1CCOCC1 (stereo not given)	2.0	-8.1	5.6	13	1.2	-10	-3	0
Cc1ccc(C(=O)Nc2cccc(C(=O)NC3CCCCC3)c2)cc1	0.7	0.9	0.7	4	-0.2	6	3	2
COc1ccc(N2C(=O)c3cccc4cccc(c34)C2=O)nn1	-108	-111	2.8	19	-0.6	4	4	2
O=C(CNC(=O)c1cccs1)NCCN1CCN(c2ccccc2F)CC1	0.4	3.9	0.6	-27	0.6	4	-12	-3
O=C1CC(c2ccc(O)c(O)c2)Oc2c1ccc(O)c2O (stereo not given)	4.9	13	nt	nt	0.0	nt	-4	-2
O=C(O)/C=C/C(=O)NNC(=O)c1cccc(Br)c1	3.0	-1.0	1.0	2	-0.6	6	-5	-8
CN(Cc1ccccc1)C(=O)c1ccc2c(c1)OCCO2	3.6	-1.6	4.9	-3	-1.0	-15	1	-7
CC(=O)c1ccc(N2CCN(C(=O)C(=O)c3c(C)[nH]c4ccccc34)CC2)cc1	5.9	3.4	1.8	2	0.8	2	-1	-1
Cc1n[nH]c(=S)n1/N=C/c1ccc(-c2ccc(Cl)cc2)o1	nt	-2.6	-1.8	-13	-0.1	-1	3	1
Cn1nnc(NC(=S)NC(=O)Cc2ccccc2)n1	2.0	8.2	-0.5	-10	-0.4	-14	2	-15
CC(=O)c1ccc(N/C=C/C(=O)c2ccc(Br)cc2)cc1	-2.9	-1.0	3.8	6	-2.7	-6	11	-1
COc1ccc(S(=O)(=O)N2CCCC(N(C)CCc3ccccc3)C2)cc1OC (stereo not given)	-1.3	-3.7	5.3	27	-0.2	2	3	nt
O=S(=O)(c1ccccc1)N1CCN(c2cccc(Cl)c2)CC1	2.0	2.1	0.9	12	-0.1	3	16	1
Cc1ccc(C(=O)O)c(C(=O)Nc2nc3ccccc3s2)c1	4.4	5.0	6.1	-8	-8.3	-7	-2	0
CCn1c(SCC(=O)Nc2ccc(OC)cc2)nc2c1c(=O)n(C)c(=O)n2C	2.1	-0.8	?	-6	-0.7	9	9	-4
C=CCCCCCCCCC(=O)NNC1=CC(=O)CC(C)(C)C1	-3.0	-0.8	?	12	-0.3	-6	1	0
CC1CCCC(NC(=O)COC(=O)c2cc(S(=O)(=O)N3CCCCC3)ccc2N2CCOCC2)C1C (stereo not given)	2.4	9.3	-4.7	13	0.3	6	4	2
CC(=O)Nc1ccc(C2Nc3cc(C)c(C)cc3NC3=C2C(=O)CC(C)(C)C3)cc1 (stereo not given)	15	-5.9	-0.1	-3	-0.4	3	-12	-11
Cc1cc2cc(CN(Cc3cccs3)S(=O)(=O)c3ccc4c(c3)OCCO4)c(=O)[nH]c2cc1C	nt	0.7	1.3	18	0.7	5	-1	-3
CCCC(c1nnnn1Cc1ccco1)N1CCN(C(=O)c2ccco2)CC1 (stereo not given)	1.4	4.4	-2.9	-5	-1.5	4	-8	-8
CN(c1ccccc1N(C)S(=O)(=O)c1ccccc1)S(=O)(=O)c1ccccc1	nt	-7.9	2.2	-13	0.2	6	10	4
CN(NC(=O)c1cccc(Cl)c1)c1nc(-c2ccccc2)nnc1C(F)(F)F	-1.0	10	-3.0	nt	-0.6	-6	-4	8
COc1ccccc1-c1noc(-c2ccccc2C(=O)Nc2ccccc2)n1	0.7	-1.5	-1.9	1	0.0	-42	7	1
COc1ccccc1NC(=O)CS(=O)(=O)c1cn(CC(=O)N2CCOCC2)c2ccccc12	4.0	-6.4	-7.1	-9	-0.2	-3	1	2
CCC(C)Nc1nc2c(c(=O)[nH]c(=O)n2C)n1CCCc1ccccc1 (stereo not given)	nt	0.0	-2.7	15	-0.9	1	2	6
O=C(COc1ccc(-n2cnnn2)cc1)Nc1ccc(F)c(F)c1F	5.0	2.9	nt	nt	-0.5	nt	-6	0
C=C(C)c1cccc(C(C)(C)NC(=O)NCCCN2CCCC2=O)c1	2.3	-5.7	-4.2	1	0.1	-12	16	nt
Clc1ccc(CSc2ncccn2)cc1	0.5	-3.0	4.0	-4	-1.0	-7	-1	-8
O=C(CCN1C(=O)C2CC=C(Cl)CC2C1=O)NCc1ccco1 (stereo not given)	0.0	-2.7	-2.6	-3	0.1	1	-9	4
Cc1cc(OC(=O)c2ccc(S(=O)(=O)N(C)C)cc2)c([N+](=O)[O-])c(=O)[nH]1	2.7	-2.1	0.7	-8	0.2	12	1	3
Cc1nc(Sc2nnnn2-c2ccccc2)c(C#N)c(C)c1C	3.4	6.6	?	3	-0.9	4	-1	3
